High-throughput results (PubChem)
Calb FLC: C. albicans growth inhibition with fluconazole, primary screen, CaCi-2 strain, Alamar Blue fluorescence | C. albicans CaCi-2 (fluconazole-resistant clinical isolate) + fluconazole, 48 h | growth inhibition, % (concentration not given with the values) | hit rate 0.57% among 300,000;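 active means most replicates above 75%; inconclusive means exactly half above 75%; inactive means most below 75%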;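 further: all wells also contain fluconazole at 8 µg/ml as a sub-toxic cotreatment; 0% = median of DMSO wells and 100% = median of geldanamycin control wells; wells of about 8 µL received 7.5 nL stock; the first replicate is given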
Vif TR-FRET: inhibitors of Vif binding to APOBEC3G peptide, primary screen, biochemical, TR-FRET, GST-Vif 1-94, biotin-A3G peptide, dose response retest (AID 1117319); one-dose inhibition, %; IC50 in µM for titrated hits; hit rate 0.57% among 260,000; TR-FRET GST-Vif / biotin-A3G peptide binding; higher % means a stronger effect; test concentration not given here; strong numbers were not always called active; Virion infectivity factor (Human immunodeficiency virus type 1 group M subtype B (isolate …;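 active means above the screen mean plus three standard deviations and confirmed in dose response; inconclusive means results disagree or hit not tested in dose response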;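 further: Vif residues 1-94 fused to GST binding biotinylated APOBEC3G peptide 110-148; 0% = full assay without inhibitor and 100% = GST in place of GST-Vif; retest series ran down from 100 µM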
HNF4A DNA FP: change in binding of human HNF4A to DNA, primary screen, biochemical, fluorescence polarization, FITC-DNA. Hepatocyte nuclear factor 4-alpha (Homo sapiens), P41235. 1 h. activity change, % at 10 µM. hit rate 0.3% among 360,000. AID 1224865, 2016; in the data active means activity change above about 30%, passing the limit was not always enough;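 further: controls were the assay level and a saturating level of protein; the project sought stronger binding though the title names inhibitors; some compounds called inactive have numbers as strong as hits; positive values seem to mean higher polarization but the record does not say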
RanGTP-Imp inh: inhibitors of RanGTP-importin-beta interaction, primary screen, biochemical, FRET, CFP-Ran, YFP-importin-beta, homogeneous | cell-free CFP-Ran/YFP-importin-beta FRET ratio | AID 2216, 2009 | inhibition, % (no concentration beside the values) | Ran GTPase (GTP-bound) - importin-beta complex | hit rate 1.1% among 300,000;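 active means most replicates above 15%; inconclusive means exactly half above 15%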;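 further: 0% = DMSO wells and 100% = Ran loaded with GDP instead of GTP; wells of about 40 µL received 100 nL stock; the first replicate is given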
B2AR ag: beta2AR agonists driving receptor internalization, primary screen, cell-based, FAP fluorogen, flow cytometry. Beta-2 adrenergic receptor (Homo sapiens), P07550. Am2.2-beta2AR cells; reference of the scale not given here. response, % (test concentration not listed). hit rate 0.43% among 340,000;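 active means response above a set limit, near 3 SD of response in nonfluorescent compounds, cut at about 42% in these data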;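 further: stock transfer was 100 nL into about 11 µL; a reference agonist was the positive control; negative values mostly stem from fluorescent compounds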
ALR inh: inhibitors of human ALR sulfhydryl oxidase, primary screen, biochemical, H2O2 detection, HRP-luminol luminescence, single point; FAD-linked sulfhydryl oxidase ALR (Homo sapiens), P55789; hit rate 3.8% among 290,000; inhibition, % (concentration not given with the values); purified ALR, DTT oxidation;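 active means mean and each replicate at 75% or more; inconclusive means only one of the two met; inactive means neither met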;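 further: stock transfer was 7.5 nL into about 7.5 µL; 0% = neutral wells and 100% = wells with inactivated enzyme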
LANA-H2A inh: blockers of LANA interaction with H2A/H2B – biochemical, FP readout, HTS, primary screen; cell-free LANA-H2A/H2B peptide, fluorescence polarization; inhibition, % (concentration not given with the values); hit rate 0.6% among 320,000; AID 2629, 2010; in the data active means inhibition mostly above about 10%, no sharp cut-off; inactive means mostly below about 6.7%;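 further: stock transfer was 7.5 nL into about 10 µL; 0% = median of vehicle wells and 100% = median of positive control wells; one replicate is shown; the record names a cut of 25% in any replicate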
Target sequence (Q9QR71 whole entry, looked up): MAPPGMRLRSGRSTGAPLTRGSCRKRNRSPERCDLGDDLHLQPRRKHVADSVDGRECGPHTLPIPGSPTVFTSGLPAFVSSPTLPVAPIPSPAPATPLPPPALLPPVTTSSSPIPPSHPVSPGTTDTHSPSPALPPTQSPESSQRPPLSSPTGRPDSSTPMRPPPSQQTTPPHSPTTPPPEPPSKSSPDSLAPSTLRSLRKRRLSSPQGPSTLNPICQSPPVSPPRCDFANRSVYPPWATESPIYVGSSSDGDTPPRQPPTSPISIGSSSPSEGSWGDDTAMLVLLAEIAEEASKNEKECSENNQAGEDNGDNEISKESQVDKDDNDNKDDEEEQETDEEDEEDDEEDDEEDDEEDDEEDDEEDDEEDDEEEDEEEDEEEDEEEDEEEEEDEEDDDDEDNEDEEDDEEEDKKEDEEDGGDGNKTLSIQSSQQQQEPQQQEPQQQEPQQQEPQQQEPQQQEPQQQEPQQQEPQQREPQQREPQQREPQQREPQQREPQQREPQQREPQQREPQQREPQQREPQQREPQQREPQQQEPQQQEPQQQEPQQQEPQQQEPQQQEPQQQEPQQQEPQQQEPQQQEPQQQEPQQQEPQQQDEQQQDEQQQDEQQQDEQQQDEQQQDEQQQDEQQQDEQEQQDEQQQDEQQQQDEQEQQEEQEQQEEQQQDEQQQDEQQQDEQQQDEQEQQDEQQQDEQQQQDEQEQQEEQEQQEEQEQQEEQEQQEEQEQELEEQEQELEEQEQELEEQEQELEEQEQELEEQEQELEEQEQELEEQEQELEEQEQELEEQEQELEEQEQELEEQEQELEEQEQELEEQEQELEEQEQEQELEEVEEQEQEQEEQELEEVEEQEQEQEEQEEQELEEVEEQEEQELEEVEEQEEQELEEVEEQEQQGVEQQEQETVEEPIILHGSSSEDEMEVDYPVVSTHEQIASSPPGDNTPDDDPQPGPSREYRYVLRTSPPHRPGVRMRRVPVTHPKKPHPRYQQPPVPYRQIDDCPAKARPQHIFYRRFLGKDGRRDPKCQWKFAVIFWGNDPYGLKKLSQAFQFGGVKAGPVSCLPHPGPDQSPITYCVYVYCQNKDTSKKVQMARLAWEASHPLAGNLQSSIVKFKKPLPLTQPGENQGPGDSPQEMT
Starred values were filed as active, the others as inactive; i = inactive; ? = inconclusive; . = not tested or not shown.

SMILES | Calb FLC | Vif TR-FRET | HNF4A DNA FP | RanGTP-Imp inh | B2AR ag | ALR inh | LANA-H2A inh
COc1ccc(OC)c(/C=C/C(=O)c2ccc3c(c2)OCCO3)c1 | -8 | -4% | 1.5 | -16 | -4 | 5 | -2.5
CC(C)(C)OC(=O)N(CCc1ccccc1)Cc1ccc(OCc2cccc(NC(=O)C3CC3)c2)cc1 | . | -1% | 0.7 | . | 3 | . | .
Cc1cc(NC(=O)c2cccs2)n(-c2nc3ccccc3[nH]2)n1 | 4 | -7% | 7.4 | 0.7 | -11 | -3 | -1.7
CC(C)[C@H](NC(=O)c1ccc(Cl)cc1Cl)C(=O)NNc1cccc(C(=O)O)c1 | . | -5% | 4.0 | . | -6 | 7 | 15*
Cc1ccccc1C(=O)NNC1=NCCC1 | -3 | 6% | 0.4 | 4.1 | 13 | -1 | 0.2
COC(=O)c1ccccc1NC(=O)COC(=O)C1CCCCC1 | -1 | -1% | 6.2 | 0.4 | 4 | -2 | -1.2
Cc1ccc(-n2ncc(C(=O)Nc3ccc(Cl)cc3)c2C2CCNCC2)cc1C | -12 | -10% | 0.5 | 2.5 | 11 | -5 | 4.4
O=C(NCc1ccccc1)C(c1ccco1)N(C(=O)c1ccccn1)c1ccc(F)cc1 (centres undefined) | -2 | 29% | 3.0 | 4.1 | 6 | 4 | 1.6
CCOc1ncccc1C(=O)OCC(=O)Nc1ccc(C(C)C)cc1 | -3 | 0% | 4.7 | -0.1 | -6 | -1 | -2.4
COc1cccc(NS(=O)(=O)c2ccc3c(c2)NC(=O)CC(=O)N3)c1 | -6 | -6% | -2.6 | -1.1 | -3 | -1 | 4.9
Cc1ccc(CNC(=O)CCS(=O)(=O)c2cc3c(cc2Cl)NC(=O)CO3)o1 | -3 | 0% | 3.2 | ? | 0 | . | .
COc1ccc(S(=O)(=O)N(C)C)cc1NC(=O)COC(=O)Cn1cnc2ccccc2c1=O | . | -3% | 0.5 | . | 7 | -4 | 0.1
Cc1ccc2cc(CCNC(=O)c3cc4ccccc4o3)c(=O)[nH]c2c1C | 0 | . | 2.3 | -2.5 | -9 | 2 | 2.0
CCc1ccc(C(=O)O)cc1 | 10 | 0% | 3.2 | -3.7 | 4 | 3 | -0.7
CCOC(=O)Cn1nc(C)c(NC(=O)COc2ccc([N+](=O)[O-])c(C)c2)c1C | -4 | 1% | -9.8 | 11 | 10 | . | 0.9
COC(=O)c1ccc(N2OC3(C)C=CC2CC3)cc1 (centres undefined) | 7 | 0% | -3.6 | 5.8 | -11 | 4 | -2.1
CCOC(=O)c1cc(COc2cc(Cl)cc(Cl)c2)on1 | -7 | -2% | . | -1.6 | . | -15 | 1.6
O=C(COC(=O)c1cnccn1)c1ccc([N+](=O)[O-])cc1 | -8 | -8% | 0.0 | 1.5 | 0 | 59 | 2.7
CC/C(=N/O)c1cnnc(SC)n1 | -22 | . | 0.0 | 1.4 | 0 | 4 | -3.0
Cc1ccc(-n2c(SCC(=O)NCC3CCCO3)nc3ccccc3c2=O)cc1 (centres undefined) | . | . | 6.3 | . | -7 | -4 | 1.6
CN(C)C(=O)N1CCC(C(=O)NCc2ccccc2Cl)CC1 | -6 | 9% | -0.1 | ? | 3 | -7 | -1.6
CN(C)/C=C/C(=O)c1ccccc1OCc1cnc(Cl)s1 | 2 | -10% | 2.1 | 3.6 | 2 | . | 0.7
CC1(C)CC(=O)C=C(NCCN2CCN(C(=O)Nc3ccccc3)CC2)C1 | 5 | 3% | -1.6 | 0.3 | 6 | -8 | 1.6
Cc1ccc(S(=O)(=O)N(C)C)cc1NC(=O)COC(=O)/C=C/c1ccc(F)cc1 | -2 | -5% | 0.3 | -0.8 | -8 | 1 | 0.7
COc1cc(C(=O)Nc2ccc(OCC(=O)O)cc2)cc(OC)c1OC | 0 | 25% | -2.4 | -1.7 | -4 | 0 | -1.5
Cc1ccc(-c2nc3ccccc3[nH]2)cc1NC(=O)c1ccc2c(c1)OCO2 | -8 | 0% | 3.1 | ? | -11 | 0 | -0.8
CNC(=O)COC(=O)[C@@H](Nc1ccc(S(=O)(=O)N2CCOCC2)cc1[N+](=O)[O-])C(C)C | 3 | -2% | -0.5 | 2.1 | 0 | 16 | 1.3
CCCc1ccc2oc(C(=O)N3CCN(CC(=O)NC(C)C)CC3)c(C)c2c1 | 6 | . | 0.9 | 1.1 | 14 | -4 | 1.1
O=C(O)c1cccc(-n2cccc2/C=C/[N+](=O)[O-])c1 | 1 | 5.5µM* | -52 | 3.1 | -1 | . | 2.8
Cc1cc(C)c(-c2csc(NC(=O)c3cc([N+](=O)[O-])ccc3N3CCOCC3)n2)c(C)c1 | 18 | 1% | -2.3 | 1.2 | 3 | -10 | -2.5
CCOC(=O)c1cc2c(OC)ccc(OC)c2n1CC(=O)c1ccccc1 | -2 | -8% | -0.2 | 2.6 | -2 | -14 | 1.6
Clc1ccsc1-c1csc(-c2cccnc2)n1 | -2 | -14% | 3.2 | 37* | -4 | -2 | 4.1
O=C(CSCc1ccc(C(=O)O)cc1)Nc1ccc2ccccc2c1 | 12 | 0% | 1.1 | 0.2 | 0 | 99* | 0.0
O=S(=O)(c1cnccc1N1CCN(/N=C/c2ccc(Cl)cc2)CC1)N1CCCCC1 | 8 | ? | -0.8 | 2.1 | -5 | -22 | -6.2
O=C(NCc1nc2ccccc2[nH]1)C1=C[C@H](C2CCCCC2)C[C@H](OCc2ccc(CO)cc2)O1 | -3 | 1% | -0.5 | 5.3 | 4 | -8 | -7.1
O=C1CC(c2ccccc2)CN1C(=O)c1ccccc1 (centres undefined) | 3 | 21% | 1.5 | -1.4 | 5 | -2 | -1.3
COc1ccc(N(CC(=O)NC2CCCCC2)C(=O)CNC(=O)c2cccs2)cc1OC | 29 | . | 1.0 | -2.9 | -4 | -2 | 1.5
Cn1c(C(=O)OC(C(=O)NCC2CCCO2)c2cccnc2)cc2sccc21 (centres undefined) | 16 | 2% | 0.6 | . | -25 | -2 | -0.4
CC1CCN(c2ccccc2NC(=O)c2ccc(Br)o2)CC1 | -1 | . | -0.2 | -1.8 | -3 | 30 | 2.9
O=C1SCCC1NS(=O)(=O)c1ccccc1[N+](=O)[O-] (centres undefined) | -17 | ? | 0.3 | 9.2 | 4 | -8 | -2.3

Laid out differently: results already given
| Compound | Calb FLC | Vif TR-FRET | HNF4A DNA FP | RanGTP-Imp inh | B2AR ag | ALR inh | LANA-H2A inh |
| --- | --- | --- | --- | --- | --- | --- | --- |
| COc1ccc(N(CC(=O)NC2CCCCC2)C(=O)CNC(=O)c2cccs2)cc1OC | 29 | . | 1.0 | -2.9 | -4 | -2 | 1.5 |
| Cn1c(C(=O)OC(C(=O)NCC2CCCO2)c2cccnc2)cc2sccc21 (centres undefined) | 16 | 2% | 0.6 | . | -25 | -2 | -0.4 |
| CC1CCN(c2ccccc2NC(=O)c2ccc(Br)o2)CC1 | -1 | . | -0.2 | -1.8 | -3 | 30 | 2.9 |
| O=C1SCCC1NS(=O)(=O)c1ccccc1[N+](=O)[O-] (centres undefined) | -17 | ? | 0.3 | 9.2 | 4 | -8 | -2.3 |

The list continues:
SMILES | Calb FLC | Vif TR-FRET | HNF4A DNA FP | RanGTP-Imp inh | B2AR ag | ALR inh | LANA-H2A inh
COc1ccc(-c2nnc(NC(=O)c3cccs3)s2)c(OC)c1 | -14 | -12% | -3.3 | 5.5 | -2 | -4 | -12
C[C@H]1CN([C@@H](C)CO)C(=O)c2cccc(NC(=O)c3cnccn3)c2O[C@@H]1CN(C)S(=O)(=O)c1ccc(F)cc1 | . | . | 4.4 | . | -8 | -2 | -4.2
CCSc1ccc([C@@H]2[C@H]3C(=O)N(CC)C(=O)[C@H]3[C@]3(C(=O)OC)CCCCN23)cc1 | 3 | . | 11 | -6.1 | 7 | 3 | 0.0
O=C(Nc1ccc(Cl)c(Cl)c1)N1N=CCC1c1ccccc1 (centres undefined) | 47 | 3% | 1.4 | -2.9 | -7 | . | .
COc1ccc(C(C(=O)NC(C)(C)C)N(C(=O)CCC(=O)Nc2cc(C)on2)c2c(C)cccc2C)cc1 (centres undefined) | 0 | . | 2.3 | 3.1 | 1 | 1 | -0.1
COc1ccccc1/C=C/C(=O)OCC(=O)N1CCN(S(=O)(=O)c2ccc(C)cc2C)CC1 | . | -2% | 1.1 | . | 7 | . | .
COC(=O)c1sccc1NC(=O)CSc1ccccc1NS(=O)(=O)c1ccccc1Cl | 16 | -5% | 1.2 | -3.0 | 1 | . | -0.6
COc1cc(/C=N\NC(=O)c2ccc(-c3ccccc3)cc2)ccc1OCC(N)=O | 11 | . | 1.8 | -0.8 | 18 | -14 | 1.2
COc1cc(NC(=O)c2ccc(F)cc2)c(OC)cc1NC(=O)CN1CCOCC1 | 26 | -4% | 6.6 | ? | -4 | -23 | -0.7
COc1ccccc1NS(=O)(=O)c1ccc(C)c(C(=O)NCC2CCCO2)c1 (centres undefined) | -14 | 0% | 6.1 | 1.1 | 2 | -2 | 2.0
Cn1c(SSc2ccc(-c3cccnc3)n2C)ccc1-c1cccnc1 | . | -6% | -1.0 | . | 6 | . | .
O=C(Nc1ccnc(-c2ccncc2)n1)c1cccs1 | 13 | -4% | -1.7 | 1.1 | 4 | -2 | -1.1
CC(=O)n1nc(-c2ccccc2)nc1NCc1ccc(F)cc1 | 4 | -4% | -1.2 | -0.4 | -5 | -3 | 1.0
COC(=O)C(C)Sc1nc2ccsc2c(=O)n1Cc1ccccc1 (centres undefined) | 0 | 2% | 1.0 | 0.3 | -1 | 0 | 3.9
O=C(Nc1nccs1)c1ccc(S(=O)(=O)N2CCOCC2)cc1 | -12 | 12% | -0.5 | -2.8 | -3 | -5 | -0.9
COc1ccc(CN2CCNC(=O)C2CC(=O)N2CCCCO2)cc1OC (centres undefined) | 35 | 1% | -1.4 | 3.6 | -1 | -7 | 6.0
COc1ccc(/C=N/NC(=O)c2ccc(NC(=O)C3CCCCC3)cc2)cc1O | -13 | -1% | -3.0 | -3.5 | 11 | 68 | -6.4
CCCCc1cc(=O)oc2cc(OC(C)C(=O)NCC3CCC(C(=O)O)CC3)c(Cl)cc12 (centres undefined) | -5 | . | -1.9 | 0.5 | -4 | -1 | -6.4
O=C(N/N=C/c1ccc(N2CCOCC2)s1)c1ccccc1Br | -6 | 1% | 4.2 | 2.0 | -1 | 4 | -5.6
Cc1cc(Cl)ccc1NC(=S)N1CCN(Cc2ccc3c(c2)OCO3)CC1 | -6 | 13% | -1.9 | -4.1 | 2 | -6 | -0.7
Cc1noc(NS(=O)(=O)c2ccc(NC(=O)Cc3ccc([N+](=O)[O-])cc3)cc2)c1C | 2 | . | 4.1 | 0.4 | 1 | 72 | 1.7
Fc1ccc2nc3n(c2c1F)CCCCCC3 | 18 | 5% | 0.0 | 0.1 | -1 | . | 0.5
CCOC(=O)c1cc(-c2ccccc2)n(CC(=O)Nc2ccc(OCC)cc2)c1C | -4 | . | 5.0 | 5.0 | -1 | 21 | 0.4
CC(C)C[C@@H](CN)NC(=O)c1nc[nH]c1C(=O)N[C@@H](CC(=O)O)C(=O)CNC[C@H](C)NC(=O)c1nc[nH]c1C(=O)N[C@@H](CC(=O)O)C(=O)O | . | 9% | -1.9 | . | -12 | . | .
NC1=NC(=O)/C(=C/c2ccccc2OS(=O)(=O)c2ccc3ccccc3c2)S1 | -8 | 7% | -1.8 | 4.6 | -5 | -5 | i
